# VDR inh = blocks the human vitamin D receptor; AID 504847; VDR-SRC2-3 peptide fluorescence polarization, 2 h; P11473; Potency, µM, for inactives: max response, negative = inhibition, hits mostly inhibitors; 0.93% of 400,000 active; active = well fitted inhibition curve with a large enough effect; inconclusive = small, poorly fitted or top-dose-only effect, or another doubt; inactive = no such curve, though single readings can be large or run the other way; note: series mostly up to about 120 µM
# Target sequence (P11473 whole entry, looked up): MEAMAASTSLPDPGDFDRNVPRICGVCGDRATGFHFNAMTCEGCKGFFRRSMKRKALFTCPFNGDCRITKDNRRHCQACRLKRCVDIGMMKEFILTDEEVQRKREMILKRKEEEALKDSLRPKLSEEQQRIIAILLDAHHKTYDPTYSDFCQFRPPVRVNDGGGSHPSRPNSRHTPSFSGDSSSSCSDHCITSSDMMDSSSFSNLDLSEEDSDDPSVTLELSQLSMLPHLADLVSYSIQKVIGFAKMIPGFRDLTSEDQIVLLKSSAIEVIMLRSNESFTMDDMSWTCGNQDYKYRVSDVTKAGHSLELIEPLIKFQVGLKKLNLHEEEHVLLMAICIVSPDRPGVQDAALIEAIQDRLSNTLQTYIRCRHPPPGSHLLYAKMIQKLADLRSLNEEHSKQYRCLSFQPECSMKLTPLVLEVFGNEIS
#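 VDR–SRC2-3 interaction, FP format. Cmpds 23 nl via pintool, brief spin, 2 h ambient incubation.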
# * = called active by the depositor; ? = inconclusive. % is set by controls: 0 for no effect and ±100 for the full control effect; potency is the fitted concentration of half-maximal effect.
VDR inh,Compound
5%,Cc1ccc(CNC(=O)c2cnc(N3CCCC3)nc2C)cc1
-18%,CCCN1CCN(C(=O)c2cc(COc3ccc(F)c(F)c3)on2)CC1
6%,CCOc1cc(/C=N/NC(=O)c2cccs2)ccc1OC(=O)N1CCOCC1
0%,N#Cc1c(C(F)(F)F)cc(-c2cccs2)nc1SCC(=O)Nc1cccc(C(F)(F)F)c1
-15%,O=C(CSc1ccccn1)N1CCCC(Nc2ccc(F)c(F)c2)C1 (configuration not stated)
9%,O=C(Nc1cnn(Cc2c(Cl)cccc2Cl)c1)C(c1ccccc1)c1ccccc1
-19%,Cc1ccc(N(C)C(=O)C2CCCN2S(=O)(=O)c2ccc3c(c2)n(C)c(=O)c(=O)n3C)cc1 (configuration not stated)
-3%,CS(=O)(=O)N1CCN(c2cnn(-c3ccccc3)c(=O)c2Cl)CC1
11%,O=C(O)CCCn1nc(C(F)(F)F)c2c1CCCCC2
2%,O=C1C2C3C=CC(C3)C2C(=O)N1c1ccc(S(=O)(=O)Nc2nccs2)cc1 (configuration not stated)
7%,O=C(Cc1ccccc1)NCC(=O)Nc1cccc(Cl)c1
5%,CC12CCC(c3n[nH]c(=S)nc31)C2(C)C (configuration not stated)
6%,COc1ccccc1N1CC(C(=O)Nc2nnc(SCC(=O)NCC3CCCO3)s2)CC1=O (configuration not stated)
-2%,Cc1sc(NC(=O)c2ccccc2)c(C#N)c1-c1ccccc1
3%,Cn1ncc(Br)c1C(=O)NC1CCCC1
-2%,CC(=O)NC(Cc1ccccc1F)C(=O)NC1CCN(C(=O)c2cnccn2)CC1 (configuration not stated)
4%,Cc1cc(N(C)Cc2ccccc2)n2nc(-c3ccc(C(C)(C)C)cc3)nc2n1
-7%,CCOc1ccc(NC(=O)c2c(NCc3cc(OC)c(OC)cc3OC)sc3c2CCCC3)cc1
5%,CC(C)C[C@H](NC(=O)[C@H](CO)NC(=O)CNC(=O)[C@H](CCCCN)NC(=O)[C@H](CCCN=C(N)N)NC(=O)[C@H](C)NC(=O)[C@H](Cc1ccccc1)NC(=O)[C@@H](N)CCCN=C(N)N)C(=O)N[C@@H](CCCN=C(N)N)C(=O)N[C@@H](CCC(N)=O)C(=O)N[C@@H](CCCCN)C(=O)N[C@@H](CC(N)=O)C(=O)N[C@H](C(=O)O)C(C)C
-11%,Cc1ccc(C)c(N2CCN(C(=O)c3ccc4nc(N5CCOCC5)sc4c3)CC2)c1

# Compounds shown so far that have a thiophene ring, fused or not (four):
VDR inh,Compound
6%,CCOc1cc(/C=N/NC(=O)c2cccs2)ccc1OC(=O)N1CCOCC1
0%,N#Cc1c(C(F)(F)F)cc(-c2cccs2)nc1SCC(=O)Nc1cccc(C(F)(F)F)c1
-2%,Cc1sc(NC(=O)c2ccccc2)c(C#N)c1-c1ccccc1
-7%,CCOc1ccc(NC(=O)c2c(NCc3cc(OC)c(OC)cc3OC)sc3c2CCCC3)cc1

# The results go on.
VDR inh,Compound
7%,Cc1nc2cc3c(cc2s1)OCO3
0%,O=C(c1ccco1)N1N=C(c2cccs2)CC1c1ccc(F)cc1 (configuration not stated)
0%,CSCCOC(=O)C1=C(C)NC(=O)CC1c1ccccc1Cl (configuration not stated)
-8%,COC(=O)c1ccc(-n2cnc(Cl)n2)c(F)c1
2%,CCCCC(=O)Nc1ccc2c(c1)nc(CCN1CCOCC1)n2C
0%,CCCOc1ccc2cc(C(=O)NCc3ccccc3)c(=O)oc2c1
-8%,c1ccc2c(c1)N1CCN=C1N2CCN1CCCCC1
5%,CSc1cccc(NC(=S)N(CCCN2CCCC2)Cc2cccn2Cc2ccc(Cl)cc2)c1
18%,CCOc1ccccc1C1C(C(=O)Nc2ccccc2)=C(C)Nc2nc(SCC(=O)c3ccc(C)cc3)nn21 (configuration not stated)
?,Oc1ccc(CNc2ccccc2)c2cccnc12
-6%,CNC(=O)COc1ccc(Nc2nnc(-c3ccc(C)c(S(=O)(=O)NC(C)(C)C)c3)c3ccccc23)cc1
28µM*,COc1ccc(N=Cc2nc(-c3ccccc3)oc2OC(C)=O)cc1
?,O=S(=O)(/C=C/C=C/S(=O)(=O)c1ccccc1)c1ccccc1
-5%,Cc1cc(=O)n2nc(N3CCC(C(=O)NCc4cccc(Cl)c4)CC3)sc2n1
-4%,CCOc1ccc(-c2ccc(CO)o2)cc1N
23%,COc1ccc(N(C(=O)/C=C/c2ccccc2)C2=CC3CCC(C2)N3C)cc1 (configuration not stated)
-1%,CC1(C)CC(=O)c2c(nn(-c3ccccc3)c2N)C1
?,CCOC(=O)c1ccc2c(c1)nc(-c1ccccn1)n2CC
-12%,Clc1cccc(-c2ccnc3nc(-n4cccc4)nn23)c1
-18%,O=C(c1ccc2c(c1)N(Cc1ccc(F)cc1)C(=O)c1ccccc1S2(=O)=O)N1CCCC1
-16%,CCc1ccccc1Nc1nc(N)nc(COC(=O)CCS(=O)(=O)c2ccccc2)n1
-11%,COc1ccc(Cn2cccc(NC(=O)Nc3cccc(C#N)c3)c2=O)cc1
-3%,OCC1(Cc2ccccc2)CCN(Cc2ccccn2)CC1
3%,Cc1ccc(NC(=O)c2ccc(NCCN)c([N+](=O)[O-])c2)cc1
-9%,CC1(C)CC(=O)C2=C(C1)c1c(ccc3ccccc13)NC2c1ccco1 (configuration not stated)
-8%,Fc1ccccc1NC(=S)N1CCOCC1
-29%,O=C(CCNS(=O)(=O)c1ccc(OC(F)(F)F)cc1)NC1CC1
13%,CCn1cc(C(c2ccccc2)C(C(C)=O)[N+](=O)[O-])c2ccccc21 (configuration not stated)
0%,COc1ccc(NC(=O)c2c(NC(=O)CNCc3ccco3)sc3c2CCC3)c(OC)c1
6%,COc1ccc(-c2csc(Nc3cccnc3)n2)cc1
-9%,COc1ccc(OC)c(NC(=O)CCCN2C(=S)NC(C)(C)CC2C)c1 (configuration not stated)
7%,Cn1cc([N+](=O)[O-])c(C(=O)N2CCN(Cc3ccc4c(c3)OCO4)CC2)n1
-7%,C=CCc1ccc(OCCOc2ccc(/C=N/n3cnnc3)cc2OCC)c(OC)c1
-10%,C(=C\c1ccccc1)/C=N/Nc1ccc2nncn2n1
-13%,COc1cc(/C=C2/NC(=O)NC2=O)ccc1OCC(=O)Nc1ccc(F)cc1
-15%,CN(C)Cc1ccc(-c2nc3cccc4c3n2CCNC4=O)cc1
1%,CC(=O)c1cccc(N(C(=O)Cn2nnc3ccccc32)C(C(=O)NCc2ccccc2)c2ccc(F)cc2)c1 (configuration not stated)
-8%,O=c1c2c(-c3ccccc3)csc2ncn1/N=C/c1ccc(O)c([N+](=O)[O-])c1
-4%,CCCCc1nnc(SCC(=O)NC2CCCCC2)n1C
10%,COc1ccc(CNC(=O)C(c2ccncc2)N(C(=O)Cc2cccs2)c2ccccc2C)cc1 (configuration not stated)

# Part of the list above, field by field.
CC(=O)NC(Cc1ccccc1F)C(=O)NC1CCN(C(=O)c2cnccn2)CC1 (configuration not stated)
  VDR inh: -2%

COc1ccc(OC)c(NC(=O)CCCN2C(=S)NC(C)(C)CC2C)c1 (configuration not stated)
  VDR inh: -9%

N#Cc1c(C(F)(F)F)cc(-c2cccs2)nc1SCC(=O)Nc1cccc(C(F)(F)F)c1
  VDR inh: 0%

Clc1cccc(-c2ccnc3nc(-n4cccc4)nn23)c1
  VDR inh: -12%

# Later entries
VDR inh,Compound
10%,CC[C@]12c3[nH]c4ccc(OC)cc4c3CCN1C(=O)C(CC(=O)NC/C=C(\C)CCC=C(C)C)C[C@@H]2C(=O)N1CCN(C(=O)c2ccco2)CC1 (some centres not stated)
-6%,COc1cccc(-n2c(SCC(=O)Nc3nccs3)nnc2-c2ccoc2C)c1
15%,CS(=O)(=O)N1CCN(C/C=C/c2ccccc2)CC1
20%,CN1CCc2nc3ccccc3c(C(=O)OCC(=O)N(CCC#N)c3ccccc3)c2C1
-1%,Fc1cc2ncn(Cc3ccccc3)c2cc1F
-10%,COC(=O)[C@H](Cc1c[nH]c2ccccc12)NC(=O)NCc1ccccc1
-17%,CC1=NN(CCc2ccccn2)C(=O)CC1
30%,CCOc1ccccc1NC(=O)C(OC(=O)c1ccc(NC(=O)CC#N)cc1)c1ccccc1 (configuration not stated)
-7%,CC(OC(=O)c1ccc(O)cc1)C(=O)Nc1nc(-c2ccccc2)cs1 (configuration not stated)
?,O=S(=O)(CCN(CCS(=O)(=O)C(F)(F)F)CC1CCCO1)C(F)(F)F (configuration not stated)
-24%,Cc1nc2scc(C)n2c(=O)c1S(=O)(=O)N1CCN(c2ccc([N+](=O)[O-])cc2)CC1
-21%,OCCN(CCO)c1ncnc2c1sc1nc(N3CCOCC3)c3c(c12)CCCC3
2%,CC(NCCN(C)C)C(=O)C12CC3CC(CC(C3)C1)C2 (configuration not stated)
-1%,Cc1ccc(-c2csc3ncnc(N4CCN(C(=O)c5ccccc5)CC4)c23)cc1
2%,Cn1cc(CCC(=O)NCc2ccc3c(c2)OCO3)c2ccccc21
-16%,CCOC(=O)c1cn(CC)c2cc(N3CCSCC3)c(F)cc2c1=O
-7%,O=C(N/N=C/c1ccoc1)c1ccc(Cl)cc1Cl
2%,Cc1ccc2c(Cl)cc(Cl)c(OCC(=O)NC(=O)NCc3ccco3)c2n1
4%,CCC(=O)N1CCN(c2ccccc2NC(=O)c2ccc(-c3cccc([N+](=O)[O-])c3)o2)CC1
-14%,Cc1ccccc1CSc1nnc(-c2cccs2)n1Cc1ccco1

# A second format for part of the listing above:
OCCN(CCO)c1ncnc2c1sc1nc(N3CCOCC3)c3c(c12)CCCC3
  VDR inh: -21%
CC(NCCN(C)C)C(=O)C12CC3CC(CC(C3)C1)C2 (configuration not stated)
  VDR inh: 2%

# (further entries)
VDR inh,Compound
-8%,COCCN(Cc1cn(C)nc1-c1ccccc1F)C(C)C
18%,Cc1cccc(NS(=O)(=O)c2ccc3c(c2)n(C)c(=O)n3C)c1C
-5%,CN1CCN(NC(=S)NC(C)(C)CC(C)(C)C)CC1
-4%,COc1cc(C(=O)Nc2cc(Cl)ccc2-n2cncn2)ccc1OC(F)F
-22%,COc1ccc(CCCc2nnc(SCC(=O)Nc3cc(F)ccc3C)o2)cc1
23%,O=C(NCc1ccccc1)c1cccc(COc2ccc(Cl)cc2)c1
?,N#C/C(=C\c1cc([N+](=O)[O-])ccc1Cl)C(N)=O
-4%,C[C@H]1CCC(=O)N([C@H](CN=[N+]=[N-])Cc2ccccc2)CC1
6%,CCOc1ccccc1NC(=O)CSc1nc(=O)[nH]c2c1CCCC2
5%,N#Cc1cnc(SCC(=O)c2ccccc2)nc1N
-3%,CC[C@H](C)[C@H](NC(=O)[C@H](CCC(=O)O)NC(=O)[C@H](CC(N)=O)NC(=O)[C@@H](N)[C@@H](C)O)C(=O)N[C@H](C(=O)N[C@@H](CCC(=O)O)C(=O)N[C@@H](CCC(=O)O)C(=O)N[C@@H](CCC(N)=O)C(=O)N[C@@H](Cc1ccc(O)cc1)C(=O)N[C@H](C(=O)N1CCC[C@H]1C(=O)N[C@@H](CCC(N)=O)C(=O)N[C@@H](CO)C(=O)N[C@@H](CC(C)C)C(=O)N[C@@H](C)C(=O)N[C@H](C(=O)N[C@@H](CC(C)C)C(=O)N[C@@H](CCC(=O)O)C(=O)N[C@@H](CO)C(=O)N[C@H](C(=O)N[C@@H](Cc1ccccc1)C(=O)N[C@@H](CCC(N)=O)C(=O)N[C@@H](CCC(=O)O)C(=O)N[C@@H](CC(C)C)C(=O)NCC(=O)N[C@@H](CCCCN)C(=O)N[C@@H](CC(C)C)C(=O)N[C@H](C(=O)NCC(=O)N1CCC[C@H]1C(=O)N[C@@H](CC(N)=O)C(=O)N[C@@H](CO)C(=O)N[C@@H](CCC(N)=O)C(=O)O)[C@@H](C)O)C(C)C)[C@@H](C)O)[C@@H](C)O)C(C)C
2%,O=C(Nc1cccn2ncnc12)c1ccc(Cl)cc1
-4%,CCOC(=O)c1cc2c(=O)n3ccccc3nc2n(CCCOC)c1=NC(=O)c1c(-c2ccccc2Cl)noc1C
0%,CCCC(=O)N1CCC(O)(c2cccc(F)c2)CC1
-14%,Cc1oc(-c2cccc(Cl)c2)nc1CN1CCCC(C(=O)NCc2ccc(F)cc2)C1 (configuration not stated)
1%,COc1cc(OC)c2c(c1Cl)OC1(C2=O)C(O)=CC(=O)CC1C (configuration not stated)
4%,COc1ccc(NC(=O)c2cccc(S(=O)(=O)N3CCc4ccccc43)c2)cn1
12%,COC(=O)c1ccc(N2CCN(C(=O)C3CC3)CC2)c([N+](=O)[O-])c1
-27%,O=[N+]([O-])c1cc(Cl)cc(/C=N/NC(=S)Nc2cc(S(=O)(=O)N3CCOCC3)ccc2Cl)c1O
-4%,O/N=C/c1ccnc(SCc2ccccc2)n1
-19%,CN(C)/C=C(/C#N)C(=O)c1cccc(Oc2ccc(C(C)(C)C)cc2)c1
-4%,COc1ccc(/C=c2\s/c(=C\C(=O)C(C)(C)C)[nH]c2=O)cc1O
?,CSc1ccccc1NC(=O)CCS(=O)(=O)c1nc(-c2cccs2)cc(C(F)(F)F)n1
-3%,CN(C(=O)Nc1ccccc1)C1CCS(=O)(=O)C1 (configuration not stated)
-1%,Cc1ccc(NC(=O)c2nnn(-c3cc(C)cc(C)c3)c2N)cc1
-24%,COc1ccc(C(=O)Nc2nnc(C(F)(F)F)s2)cc1

# Screening data deposited in PubChem by National Center for Advancing Translational Sciences (NCATS).

# Not all compounds are listed (hit frequency here may not be typical).
